Screens (PubChem)
ClpP mod: qHTS Assay for Activators of ClpP | ATP-dependent Clp protease proteolytic subunit (Bacillus subtilis (strain 168)), P80244 | purified B. subtilis ClpP, FRET peptide cleavage, 20 min | Potency, µM (highest dose often 57.5 µM), for the others: at the highest dose activity change, negative = active | actives 1.9% (n = 340,000) | AID 651965, 2013; active = well fitted falling curve with a large enough effect; inconclusive = small, poorly fitted or top-dose-only effect; inactive = no such curve, though single readings can be large or run the other way; further: potency means the concentration at half of the fitted maximal effect; the source files actives as falling curves though it sought activators and does not explain the sign; nearly all actives have a fitted effect of over 65% in size; many hits overshoot -100%
Target sequence (P80244 whole entry, looked up): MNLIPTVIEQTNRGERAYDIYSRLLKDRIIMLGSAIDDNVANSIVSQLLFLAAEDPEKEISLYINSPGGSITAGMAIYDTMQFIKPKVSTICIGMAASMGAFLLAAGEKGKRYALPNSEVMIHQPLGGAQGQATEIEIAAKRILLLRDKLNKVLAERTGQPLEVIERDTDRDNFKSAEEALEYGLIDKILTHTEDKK
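Purified B. subtilis ClpP, 10 microg/mL final in Tris/HCl pH8 with KCl, BSA, glycerol and Tween-20, cleaved an Abz/nitrotyrosine-quenched decapeptide. Fluorescence (ex 320, em 430) was read at 0 and 20 min at room temperature. Delta was normalized to 5.8 microM ADEP and DMSO/no-enzyme controls.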
Menin MLL FP FL: qHTS Assay for Inhibitors Targeting the Menin-MLL Interaction in MLL Related Leukemias: Competition With Fluorescein Labeled MLL-derived Peptide. FP activity change, % at 61.4 µM. AID 1766, 2009. Fluorescence polarization, fluorescein-MLL peptide displacement from menin. 290,000 tested, under 10 active; inconclusive = falling polarisation curve, or a change in total fluorescence; inactive = total fluorescence flat and polarisation flat or rising; no compound was filed as active; the % refers to the polarisation; negative = inhibition;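 further: % of control where 0% means no effect; inhibitors lower the polarisation; unlabelled MLL peptide was the positive control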
gsp antagonist: qHTS for Antagonists of gsp, the Etiologic Mutation Responsible for Fibrous Dysplasia/McCune-Albright Syndrome: qHTS; gsp-mutant cells, cAMP HTRF, 30 min; control for the full effect not named in the record; Potency, µM (highest dose often 76.9 µM), without a hit: at the top dose activity change, negative = inhibition, actives largely listed as inhibitors; actives 0.4% (n = 340,000); AID 624288, 2012; active = falling curve of any shape with a large fitted effect; inconclusive = falling curve, mostly with a smaller effect; inactive = flat or rising curve; cell line not stated here;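 further: intracellular cAMP measured with PDE inhibitor Ro 20-1724 present during compound exposure; potency means the concentration at half of the fitted maximal effect; on the % scale 0 is the no-effect control and ±100 the full control effect; nearly all actives have a fitted effect of over 65% in size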
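HTRF cAMP read-out (cAMP-d2 plus anti-cAMP antibody-K in lysis buffer, 30 min RT). Before lysis, cells are exposed to compounds with […] for 30 min at 37C in DPBS containing Ca/Mg, BSA and Tween 20.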
TRPV1 PAM: HTS Assay for Compounds that Act as Potentiators of the Vanilloid Receptor 1; potentiation, % at 8.33 µM; TRPV1-expressing cells, Fluo-8 calcium influx, capsaicin EC20 potentiation; host cell line not named in the record; control for the full effect not named in the record; Transient receptor potential cation channel subfamily V member 1 (Homo sapiens), Q8NER1; actives 0.02% (n = 320,000); active means potentiation above 80%; inconclusive means 30% to 80%; inactive means below 30%; further: 0% is about no effect
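TRPV1-expressing cells were cultured overnight at 35.5C and loaded with Fluo-8 calcium dye for 40 to 90 min at room temperature. After a 10 s baseline, compound was added and calcium influx was read kinetically for 3 min (ex 480/em 520 nm).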
gsp ag: qHTS for Agonist of gsp, the Etiologic Mutation Responsible for Fibrous Dysplasia/McCune-Albright Syndrome: qHTS; gsp mutant cells, cAMP HTRF, 30 min; control for the full effect not named in the record; Potency, µM (top dose mostly 76.9 µM), for inactives: top-dose activation (cAMP increase), hits mostly activators; actives 0.13% (n = 340,000); active = well fitted activation curve with a large enough effect; inconclusive = small, poorly fitted or top-dose-only effect, or another doubt; inactive = no such curve, though single readings can be large or run the other way; cell line not stated here;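 further: phosphodiesterase inhibitor Ro 20-1724 added with compounds to block cAMP breakdown; potency means the concentration at half of the fitted maximal effect; nearly all actives have a fitted effect of over 60% in size; about a fifth of the inactives were tested at one dose only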
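Cells in DMEM/10% FBS with G418 were pretreated with compounds in DMSO plus […] (300 uM stock) for 30 min at 37C. cAMP was measured by HTRF (cAMP-d2 plus anti-cAMP antibody-K) after 30 min at room temperature.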
TRPML1 blocker: qHTS for Inhibitors of the Human Mucolipin Transient Receptor Potential 1 (TRPML1) | actives 0.02% (n = 390,000) | AID 624415, 2012 | TRPML1-inducible cells, Ca2+ dye fluorescence, FDSS; stronger effect = lower value; inhibition of EC80 agonist-evoked calcium signal | Mucolipin-1 (Homo sapiens), Q9GZU1 | activity change, negative = inhibition, % (concentration not given with the values); in the data active means activity change below about -50%; inconclusive means about -30% to -50%; inactive means above about -30%;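 further: stimulus is agonist 54-4 at its EC80 concentration; on the % scale 0 is the no-effect control and ±100 the full control effect; compound concentration not given in the record; the text of the record puts the active cut at -80%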
Target sequence (Q9GZU1 whole entry, looked up): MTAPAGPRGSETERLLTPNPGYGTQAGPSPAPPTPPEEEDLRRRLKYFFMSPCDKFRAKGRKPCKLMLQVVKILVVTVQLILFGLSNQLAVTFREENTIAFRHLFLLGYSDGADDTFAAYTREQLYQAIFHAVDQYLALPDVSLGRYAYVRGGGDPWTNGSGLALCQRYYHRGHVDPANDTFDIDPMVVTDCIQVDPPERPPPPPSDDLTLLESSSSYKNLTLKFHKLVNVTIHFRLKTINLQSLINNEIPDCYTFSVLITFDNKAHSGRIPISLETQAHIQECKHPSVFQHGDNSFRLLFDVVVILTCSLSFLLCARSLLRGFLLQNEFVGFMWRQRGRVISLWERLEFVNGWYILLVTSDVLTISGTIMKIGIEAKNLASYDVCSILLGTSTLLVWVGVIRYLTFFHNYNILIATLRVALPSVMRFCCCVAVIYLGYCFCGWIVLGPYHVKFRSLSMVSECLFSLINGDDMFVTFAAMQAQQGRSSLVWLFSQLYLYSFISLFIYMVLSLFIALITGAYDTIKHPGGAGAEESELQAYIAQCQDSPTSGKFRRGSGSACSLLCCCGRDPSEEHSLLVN
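Tet-induced TRPML1-DL cells loaded with Ca8 no-wash calcium dye were read kinetically on FDSS. Compound addition was followed by EC80 agonist 54-4 (4 uM final); inhibition was read over 110 s.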
Sfp inh: qHTS Assay for Inhibitors of Bacillus subtilis Sfp phosphopantetheinyl transferase (PPTase). 4'-phosphopantetheinyl transferase ffp (Bacillus subtilis), Q9F4F7. Biochemical Sfp PPTase activity, qHTS. Potency, µM, without a hit: max response, negative = inhibition, hits mostly inhibitors. actives 3.5% (n = 310,000). AID 1490, 2009; active means well fitted inhibition curve with a large enough effect; inconclusive means small, poorly fitted or top-dose-only effect, or another doubt; inactive means no such curve, though single readings can be large or run the other way;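 further: the enzyme is Sfp with the accession as filed and its product quenches rhodamine fluorescence; potency means the concentration at half of the fitted maximal effect; 0% = enzyme reaction without inhibitor and -100% = no enzyme wells; top concentration of the series not given in the record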
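Reaction rates are the 30-min fluorescence difference (ex 525, em 598 nm) in wells containing 15 nM Sfp, 5 uM rhodamine-CoA and 12.5 uM BHQ-2-YbbR at pH 7.6 with 10 mM MgCl2.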
An asterisk follows results filed as active; ? = inconclusive; . = no result given; [ ] = another dose, or the depositor's remark.

Results follow in this order: ClpP mod	Menin MLL FP FL	gsp antagonist	TRPV1 PAM	gsp ag	TRPML1 blocker	Sfp inh
COC(=O)c1cccc(NC(=O)c2cccnc2C(=O)O)c1C
    .	-4.0	-13%	18	4%[15.4 µM]	9	79µM*
CC(=O)NNc1nc(-c2ccc(C)cc2)cs1
    .	-1.4	4%	-3	-8%[15.4 µM]	-8	40µM*
Cc1cc(=O)oc2c(C)c(OC(C)C(=O)N3CC[C@@]4(O)CCCC[C@H]4C3)ccc12 (some centres not stated)
    4.7%	-9.5	-8%	-7	.	.	14%
COc1ccc(S(=O)(=O)NNC(=O)c2cccs2)cc1
    -2.2%	2.9	5%	19	1%	-4	-26%
N#CC(C#N)=CC1=C2OC(c3ccccc3)=CC(c3ccccc3)=C2CCC1
    2.0%	0.7	-6%	-4	?	38	7%
COc1ccc(OC)c(CNC(=O)CCN2C(=O)COc3ccccc32)c1
    -0.2%	3.9	-8%	-6	-2%	3	12%
Cc1cccc(C)c1NC(=O)C1CSC2(C)CCC(=O)N12 (configuration not stated)
    -2.7%	.	-13%	2	-10%[15.4 µM]	-12	.
CCOc1ccc(C(=O)NC(=S)Nc2ncccc2C)cc1[N+](=O)[O-]
    -6.9%	-1.0	-2%	-3	10%	10	-1%
COc1cc(NC(=O)CCCc2c[nH]c3ccccc23)cc(OC)c1
    -6.6%	1.6	-10%	3	2%	?	20%
N#CNC1=NCN(CCc2ccccc2)CN1
    -3.6%	0.2	8%	-2	-1%	27	33%[activator]
CCOC(=O)C(NCCOC)(NC(C)=O)C(F)(F)F (configuration not stated)
    .	5.8	6%	-17	-2%[15.4 µM]	9	29%
CCOC(=O)c1c(C)nc2sc(C(=O)Nc3ccccc3)c(N)c2c1-c1ccc(OC)cc1
    -20%	1.4	?	-15	27%	11	6%
CCOc1cccc(N)c1
    -0.6%	.	6%	-2	.	46	.
CCOC(=O)Cn1cc(/C=C(/C#N)C(=O)NC(C)C)c2ccccc21
    .	-3.3	0%	-20	18%	32	-1%
COc1ccccc1CNS(=O)(=O)c1ccc2c(c1)N(C(C)=O)CCO2
    0.8%	2.1	-5%	0	50%	-21	7%
COc1ccc(N2CCN(CCNC(=O)C3CC(=O)N(C4CCCC4)C3)CC2)cc1 (configuration not stated)
    -8.2%	6.5	-6%	2	-26%	31	10%
Cc1ccc(NC(=O)Cn2nnc(-c3ccccc3NC(=O)c3cccs3)n2)cc1
    -15%	3.1	12%	9	18%	-9	?
O=C(CCN1C(=O)S/C(=C/c2ccc(F)cc2)C1=O)Nc1ccc(O)c(C(=O)O)c1
    -4.0%	.	5%	-7	-2%	68	10%
CCN(CC(=O)NC(C)(C)C)C(=O)CN1c2cccc3cccc(c23)S1(=O)=O
    .	5.1	7%	0	?	-15	10%
O=S(=O)(NCc1ccc(Cl)cc1)c1cnc[nH]1
    -0.9%	-0.8	23%	4	-19%	-5	-6%
COc1ccccc1CC(NC(C)=O)C(=O)NC1CCN(C(=O)Nc2ccccc2Cl)CC1 (configuration not stated)
    0.1%	3.9	1%	10	-15%	2	3%
CCOC(=O)c1sc2nc3c(cc2c1N)COC(C(C)C)C3 (configuration not stated)
    0.8%	3.7	13%	-4	2%	-8	8%
N#C/C(C(=O)N1CCOCC1)=c1\s/c(=C/c2ccncc2)c(=O)n1-c1ccccc1
    .	1.3	.	?	.	.	1%
COc1ccc(C(=O)N/C(=C/c2cccs2)c2nc3ccccc3[nH]2)cc1OC
    -25%	0.1	-1%	7	29%	3	0%
Cc1[nH]c2ccc(C(=O)N3CCC(C(N)=O)CC3)cc2c1C
    -0.2%	.	-10%	.	0%[15.4 µM]	-9	.
CC(C)(C)NC(=O)C(c1ccc(O)cc1)N(Cc1ccco1)C(=O)CCC(=O)Nc1ccccn1 (configuration not stated)
    .	3.3	4%	10	-23%	14	10%
COc1ccc(C(=O)NCC(=O)NCc2cc(=O)n(C)c(=O)n2C)cc1
    -1.5%	-6.3	12%	0	29%	54	5%
COc1cccc(CN(C)C(=O)c2cc(COc3ccc(-n4cncn4)cc3)on2)c1
    -1.4%	-2.0	?	1	22%	-9	3%
COCCNC(=O)c1cc2c(=O)n3cccc(C)c3nc2n1C
    4.6%	2.7	?	9	-29%	-3	18%
COc1ccc(OCCSc2nnc(CCNC(=O)c3ccc(Cl)c(Cl)c3)n2C)cc1
    1.3%	3.3	-27%	-2	-6%	-2	-13%

New compounds follow
molecule	ClpP mod	Menin MLL FP FL	gsp antagonist	TRPV1 PAM	gsp ag	TRPML1 blocker	Sfp inh
COc1ccc(N2CC(C(=O)Nc3ccc(S(=O)(=O)Nc4nc(C)cc(C)n4)cc3)CC2=O)cc1 (configuration not stated)	0.2%	1.5	-4%	21	4%	13	15%
C[C@@H]1CN([C@@H](C)CO)C(=O)CCCn2nncc2CO[C@@H]1CN(C)S(=O)(=O)c1cccs1	0.9%	.	.	.	-115%[inhibitor]	-8	.
Cc1nc(N2CCN(Cc3ccccc3)CC2)nc2c1C(=O)CC(c1ccco1)C2 (configuration not stated)	-8.4%	?	-26%	7	5%	-4	?
Cc1ccc(C)c(NC(=O)C(CC(=O)O)C2CCCO2)c1 (configuration not stated)	1.7%	2.2	-1%	0	-6%	.	14%
O=C1CN(C(=O)c2cc3ccccc3oc2=O)C(c2ccccc2)c2cc(F)ccc2N1 (configuration not stated)	-29%	3.5	-4%	0	-67%[inhibitor]	-13	-12%
CCc1ccccc1NC(=O)CSc1nnc([C@@H](NC(=O)OC(C)(C)C)C(C)CC)o1 (some centres not stated)	-1.0%	-0.2	-4%	-21	-2%	6	6%
O=S1(=O)CCN(Cc2cccc(Cl)c2)CC1	0.4%	1.4	2%	12	-2%	-6	9%
CNC(=S)N/N=C(\C)c1ccccc1	-0.1%	-1.6	-6%	6	-16%[15.4 µM]	12	?
COc1ccc(-c2cc(C(=O)N(C)Cc3ccccc3)no2)cc1OC	-4.7%	-2.3	-9%	8	7%	-7	-1%
COC(=O)C1=C(C)N(C)C(=O)NC1c1ccsc1 (configuration not stated)	0.7%	1.8	-10%	6	1%	0	10%
Cc1csc(=O)n1CCC(=O)OCC(=O)Nc1cccc(C#N)c1	-0.5%	.	-8%	2	8%	-9	.
CC(=O)Nc1cccc(NC(=O)C(=O)c2cn(CC(=O)N3CCCC3)c3ccccc23)c1	1.5%	.	.	.	-37%	-4	.
COc1ccc(CNC(=O)c2cccc(N(C)C)c2)cc1	1.4%	1.9	3%	4	?	4	?
O=C1CCCC2=C1C(c1ccccc1)NC(=S)N2 (configuration not stated)	.	?	-1%	-1	20%[15.4 µM]	-3	?
Cc1cccc(OCCCOc2cccc3cccnc23)c1C	-27%	-0.9	-9%	-7	-2%	-11	79µM*
NS(=O)(=O)c1ccc(NC(=O)COC(=O)COc2cccc(C(F)(F)F)c2)cc1	-0.1%	3.2	0%	28	3%	-5	9%
O=c1cc(CN2CCCc3ccccc32)nc2sccn12	.	?	6%	1	?	?	-26%
COc1cc(C(C[N+](=O)[O-])c2c(N)n(C)c(=O)n(C)c2=O)ccc1O (configuration not stated)	.	-6.4	.	10	0%[15.4 µM]	8	-2%
CCOc1ccc(N2C(=O)/C(=C/c3cc(OC)c(OC)c(OC)c3)N(CC(=O)OC)C2=S)cc1	0.6%	4.8	-13%	-6	-34%[inhibitor]	-15	-1%
O=c1nc2n(c3ncccc13)CCC2	-15%	-1.6	8%	26	3%	-6	1%
ON(CCc1ccncc1)Cc1ccccc1	.	.	10%	.	-22%	8	.
C/C(=N\NS(=O)(=O)c1cccc([N+](=O)[O-])c1)c1cccnc1	.	2.3	14%	2	-2%[15.4 µM]	16	?

6 compounds from above, arranged by molar mass, rising.
molecule	ClpP mod	Menin MLL FP FL	gsp antagonist	TRPV1 PAM	gsp ag	TRPML1 blocker	Sfp inh
O=c1nc2n(c3ncccc13)CCC2	-15%	-1.6	8%	26	3%	-6	1%
ON(CCc1ccncc1)Cc1ccccc1	.	.	10%	.	-22%	8	.
Cc1ccc(C)c(NC(=O)C(CC(=O)O)C2CCCO2)c1 (configuration not stated)	1.7%	2.2	-1%	0	-6%	.	14%
Cc1cccc(OCCCOc2cccc3cccnc23)c1C	-27%	-0.9	-9%	-7	-2%	-11	79µM*
CC(=O)Nc1cccc(NC(=O)C(=O)c2cn(CC(=O)N3CCCC3)c3ccccc23)c1	1.5%	.	.	.	-37%	-4	.
CCc1ccccc1NC(=O)CSc1nnc([C@@H](NC(=O)OC(C)(C)C)C(C)CC)o1 (some centres not stated)	-1.0%	-0.2	-4%	-21	-2%	6	6%

This is a random part of the collection, and some 4.9% of all compounds hit somewhere here.
